Screening data as filed in PubChem BioAssay.
BoNT F protease = BoNT/F light chain protease inhibitors, primary screen, biochemical, flow cytometry, MLPCN library; Botulinum neurotoxin type F light chain protease (Clostridium botulinum); Multiplex microsphere protease cleavage assay; inhibition, % at 10 µM; hit rate 0.22% among 360,000; in the data active means inhibition above about 35%, passing the limit was not always enough; inconclusive means no clear call, values can overlap the other calls; further: plate controls were buffer without enzyme for full effect and enzyme alone for no effect
CCHF vOTU inh = CCHFV vOTU protease inhibitors, primary screen, biochemical, Pep-AMC substrate, fluorescence. Crimean-Congo hemorrhagic fever virus L polyprotein viral ovarian tumor (vOTU) protease …. inhibition, % at 11.5 µM. hit rate 0.55% among 370,000; in the data active means inhibition above about 30%; further: 0% = vehicle wells with enzyme and 100% = no enzyme wells
VHR inh abs = VHR1 phosphatase inhibitors, primary screen, biochemical, absorbance, uHTS; Dual specificity protein phosphatase 3 (Homo sapiens), P51452; recombinant VHR phosphatase, pNPP absorbance; inhibition, % at 13.3 µM; hit rate 0.52% among 290,000; AID 1654, 2009; in the data active means inhibition above about 50%; further: some compounds called inactive have numbers as strong as hits
Target sequence (P51452 whole entry, looked up): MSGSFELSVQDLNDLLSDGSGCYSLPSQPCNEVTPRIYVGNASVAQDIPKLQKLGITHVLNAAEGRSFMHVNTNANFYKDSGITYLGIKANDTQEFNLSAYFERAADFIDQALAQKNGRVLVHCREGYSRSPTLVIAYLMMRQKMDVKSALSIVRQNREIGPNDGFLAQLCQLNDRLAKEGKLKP
Rv3671c inh = Rv3671c serine protease inhibitors, primary screen, biochemical, fluorescence polarization, M. tuberculosis H37Rv; P9WHR9; inhibition, % at 5.96 µM; hit rate 0.048% among 320,000; AID 2606, 2010; in the data active means inhibition above about 38%;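 further: extracellular domain of Rv3671c used as enzyme; 0% = enzyme with DMSO and 100% = no enzyme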
Target sequence (P9WHR9 whole entry, looked up, the tested form may be a part): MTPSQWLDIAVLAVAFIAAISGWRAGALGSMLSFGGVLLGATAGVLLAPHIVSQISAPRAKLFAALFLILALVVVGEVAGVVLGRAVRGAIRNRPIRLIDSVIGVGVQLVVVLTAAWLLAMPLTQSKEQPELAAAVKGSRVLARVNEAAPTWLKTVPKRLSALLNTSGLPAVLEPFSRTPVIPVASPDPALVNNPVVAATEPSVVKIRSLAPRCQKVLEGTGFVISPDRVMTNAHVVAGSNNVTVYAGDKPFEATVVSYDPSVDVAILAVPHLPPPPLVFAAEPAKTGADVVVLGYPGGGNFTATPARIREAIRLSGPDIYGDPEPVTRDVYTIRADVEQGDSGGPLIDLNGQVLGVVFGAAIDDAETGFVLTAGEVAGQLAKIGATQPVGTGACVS
BoNT A protease = BoNT/A light chain protease inhibitors, primary screen, biochemical, flow cytometry, MLPCN library | Botulinum neurotoxin type A light chain protease (Clostridium botulinum A str. ATCC 3502) | AID 588499, 2011 | inhibition, % at 10 µM | multiplex microsphere protease substrate cleavage | hit rate 0.17% among 360,000; further: plate controls were buffer without enzyme for full effect and enzyme alone for no effect
PrPC TRFRET = inhibitors of human cell surface prion protein PrPC, primary screen, cell-based, TR-FRET | hit rate 0.43% among 370,000 | AID 720596, 2013 | inhibition, % at 13.8 µM | TR-FRET read-out | Major prion protein (Homo sapiens), P04156; in the data active means inhibition above about 24%; further: 0% = median of the test wells and 100% = reference compound wells
Anthrax LF prot = Bacillus anthracis LF protease inhibitors, primary screen, biochemical, multiplex microsphere, MLPCN library. multiplex microsphere protease cleavage assay. inhibition, % at 10 µM. hit rate 0.12% among 360,000; further: plate controls were buffer without enzyme for full effect and enzyme alone for no effect
3CLpro inhibitor = SARS-CoV 3CLpro protease inhibitors, primary screen, biochemical, quenched FRET. recombinant SARS-CoV 3CLpro, quenched FRET peptide cleavage. hit rate 0.14% among 290,000. Replicase polyprotein 1ab (Severe acute respiratory syndrome coronavirus), P0C6X7. inhibition, % at 6 µM; in the data active means inhibition above about 12%
SSB-PriA inh = inhibitors of Klebsiella pneumoniae PriA binding to SSB C-terminal tail, primary screen, biochemical, AlphaScreen; inhibition, % at 33 µM; PriA–SSB C-terminal tail interaction (Klebsiella pneumoniae); AlphaScreen SSBct-PriA binding, biotinylated peptide; hit rate 0.6% among 430,000; in the data active means inhibition mostly above about 37%, no sharp cut-off; inactive means mostly below about 20%;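 further: plate controls were negative control peptide for no effect and reference peptide for full effect; strong numbers were not always called active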
Numbers without * were called inactive; ? = inconclusive; . = no result given. Unless noted, no stated cut-off is given here; in the data, active means inhibition above about 30%; inconclusive means no clear call, values can overlap the other calls; inactive means below that.

SMILES	BoNT F protease	CCHF vOTU inh	VHR inh abs	Rv3671c inh	BoNT A protease	PrPC TRFRET	Anthrax LF prot	3CLpro inhibitor	SSB-PriA inh
CCOc1cc(C2C3=C(CC(C)(C)CC3=O)N(C)C3=C2C(=O)CC(C)(C)C3)ccc1O	?	8	0	-1	3.0	2	7	1	-3
Cc1ccc(CNC(=O)C2CC3Cn4c(nc5cc6ccccc6cc54)C3N2C)o1 (centres undefined)	-2	17	7	-3	-0.4	-5	-6	.	-10
Cc1ccccc1NC(=O)CCC(=O)NN=Cc1cccnc1	.	.	.	.	.	.	.	.	-10
Cn1c(=O)c2c(ncn2CCOc2ccc(Br)cc2)n(C)c1=O	-7	5	17	-4	0.3	10	-1	-6	5
CCOC(=O)CN1C(=O)N[C@@H](c2cccc(C(F)(F)F)c2)C(C(=O)OC)=C1C	2	1	.	1	0.5	8	-6	.	-11
COc1ccc(OC(=O)CCc2c[nH]c3ccccc23)cc1	-5	2	19	4	-0.7	0	-4	2	-3
Cc1nc(NCC2CCCO2)[nH]c(=O)c1CCC(C)C (centres undefined)	-7	22	41	8	-0.1	3	2	-2	-3
C=CCn1c(=S)[nH]c2scc(-c3ccco3)c2c1=O	.	3	-3	6	.	4	.	1	-12
CCN(CC)CCCN1C(=O)C(O)=C(C(=O)c2cc3cccc(OC)c3o2)C1c1ccncc1 (centres undefined)	5	-2	26	-5	?	-6	-16	0	-8
CCC(=Nn1nnnc1Nc1ccccc1)c1ccccc1	.	.	.	.	.	.	.	.	-12
CCC(C)NC(=O)C1CCN(S(=O)(=O)c2cccnc2)CC1 (centres undefined)	0	-6	7	5	-0.4	-2	-2	-2	-14
COc1ccc(C(=O)ON=Cc2ccc(S(=O)(=O)c3ccc(Cl)cc3)nc2)cc1	.	.	.	.	.	.	.	.	-14
Cc1cccc(NS(=O)(=O)c2ccc(C(=O)N3CCCCCC3)cc2)c1C	-10	-1	.	-8	-4.2	6	-1	.	-13
CCc1ccc(OCCCOc2ccc(C=O)cc2)cc1	-8	7	14	-8	-0.6	0	-5	0	-44
Cc1ccccc1NC(=O)c1ccc2c(c1)C(=O)N(CC(C)C)C2=O	?	-8	14	-2	-3.7	-6	-2	-1	-7
CC(=O)Nc1ccc(CN2CCCC(CO)(Cc3ccccc3C)C2)cc1 (centres undefined)	-4	-12	17	5	-0.6	-3	0	1	-2
O=[N+]([O-])c1ccc(-c2nc(-c3cccs3)c(-c3cccs3)[nH]2)cc1	17	21	29	-21	4.8	20	-2	2	-1
CN(C(=O)COC(=O)c1cccnc1Nc1cccc(C(F)(F)F)c1)C1CCS(=O)(=O)C1 (centres undefined)	5	8	28	7	0.7	4	1	0	-1
C/C(=N\NC(=O)c1nnn(-c2nonc2N)c1CSc1ccc(Cl)cc1)c1cccnc1	-1	9	1	-24	-0.5	2	2	9	.
N#Cc1cnn(-c2ccccc2)c1NC(=O)c1ccccc1F	-17	1	.	1	-1.4	2	-8	.	-3
CN1CCN(NC(=O)/C=C/c2cccc([N+](=O)[O-])c2)CC1	-4	6	-9	-1	-0.7	-23	-20	-2	-2
Clc1ccc(-c2nnc(COc3ncnc4ccccc34)o2)cc1	5	-4	17	6	0.3	8	-6	6	-1

A draw from above in order of number of heavy atoms, ascending:
SMILES	BoNT F protease	CCHF vOTU inh	VHR inh abs	Rv3671c inh	BoNT A protease	PrPC TRFRET	Anthrax LF prot	3CLpro inhibitor	SSB-PriA inh
C=CCn1c(=S)[nH]c2scc(-c3ccco3)c2c1=O	.	3	-3	6	.	4	.	1	-12
Cc1nc(NCC2CCCO2)[nH]c(=O)c1CCC(C)C (centres undefined)	-7	22	41	8	-0.1	3	2	-2	-3
CCc1ccc(OCCCOc2ccc(C=O)cc2)cc1	-8	7	14	-8	-0.6	0	-5	0	-44
CCC(=Nn1nnnc1Nc1ccccc1)c1ccccc1	.	.	.	.	.	.	.	.	-12
Cn1c(=O)c2c(ncn2CCOc2ccc(Br)cc2)n(C)c1=O	-7	5	17	-4	0.3	10	-1	-6	5
O=[N+]([O-])c1ccc(-c2nc(-c3cccs3)c(-c3cccs3)[nH]2)cc1	17	21	29	-21	4.8	20	-2	2	-1
Cc1ccccc1NC(=O)c1ccc2c(c1)C(=O)N(CC(C)C)C2=O	?	-8	14	-2	-3.7	-6	-2	-1	-7
Cc1cccc(NS(=O)(=O)c2ccc(C(=O)N3CCCCCC3)cc2)c1C	-10	-1	.	-8	-4.2	6	-1	.	-13
CCOC(=O)CN1C(=O)N[C@@H](c2cccc(C(F)(F)F)c2)C(C(=O)OC)=C1C	2	1	.	1	0.5	8	-6	.	-11
COc1ccc(C(=O)ON=Cc2ccc(S(=O)(=O)c3ccc(Cl)cc3)nc2)cc1	.	.	.	.	.	.	.	.	-14
Cc1ccc(CNC(=O)C2CC3Cn4c(nc5cc6ccccc6cc54)C3N2C)o1 (centres undefined)	-2	17	7	-3	-0.4	-5	-6	.	-10
CCOc1cc(C2C3=C(CC(C)(C)CC3=O)N(C)C3=C2C(=O)CC(C)(C)C3)ccc1O	?	8	0	-1	3.0	2	7	1	-3
C/C(=N\NC(=O)c1nnn(-c2nonc2N)c1CSc1ccc(Cl)cc1)c1cccnc1	-1	9	1	-24	-0.5	2	2	9	.
CCN(CC)CCCN1C(=O)C(O)=C(C(=O)c2cc3cccc(OC)c3o2)C1c1ccncc1 (centres undefined)	5	-2	26	-5	?	-6	-16	0	-8

Only part of the results is shown; count on the stated rates, not on these rows.
